WNV protease inh – WNV NS2B-NS3 proteinase inhibition. P06935. WNV NS2B-NS3 protease, fluorogenic substrate Ex360/Em465; stronger effect = lower value. z-score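 (tested at a level between 10 and 100 µM)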. hit rate 0.18% among 65,000. AID 577;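 active = z-score at -3 or under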;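 note: score is relative to mean and spread of the compound wells of a plate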
Target sequence (P06935 1371-1501 limits assumed): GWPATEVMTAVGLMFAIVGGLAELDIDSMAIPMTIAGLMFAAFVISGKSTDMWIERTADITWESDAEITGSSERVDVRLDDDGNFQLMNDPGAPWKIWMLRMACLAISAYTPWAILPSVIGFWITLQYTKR
Target sequence (P06935 1502-1679 limits assumed): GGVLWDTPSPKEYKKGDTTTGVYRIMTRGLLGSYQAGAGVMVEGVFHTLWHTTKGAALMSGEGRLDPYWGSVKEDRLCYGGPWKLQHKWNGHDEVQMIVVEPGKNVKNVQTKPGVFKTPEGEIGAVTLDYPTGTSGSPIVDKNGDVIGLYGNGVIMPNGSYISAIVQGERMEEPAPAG
Hsc70 ATP site – small molecules displacing fluorescent ligand from Hsc70 – biochemical, fluorescence polarization, primary screen (AID 568) | Hsc70 fluorescence polarization, probe displacement; higher % means a stronger effect; strong numbers were not always called active | displacement, % at 20 µM; hits with a dose series show IC50 in µM | 83,000 tested, under 10 active;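 active = displacement above 50% without optical interference and an IC50 on retest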;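 note: ATPase domain with a fluorescein-tagged ATP probe; 0% = vehicle and 100% = excess ADP; read after one hour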
MT1-MMP reporter – inhibitors of MT1-MMP promoter transcription, cell-based, luciferase reporter, luminescence (AID 618); calls from a first round at 10 µM; hits with a dose series show EC50 in µM; hit rate 0.62% among 87,000; MT1-MMP promoter luciferase reporter cells, luminescence;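 active = over half of the reporter light lost at 10 µM or EC50 under 50 µM; inactive = the rest and hits that failed the dose series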;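 note: actives suppress MT1-MMP promoter-driven transcription so potencies describe inhibitors; HT1080 fibrosarcoma cells; overnight exposure; toxic or luciferase-blocking compounds were not removed from the actives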
Numbers without * were called inactive; i = inactive; x = not tested or not shown. The list is partial; the hit share may differ from the screen's.

SMILES	Hsc70 ATP site	MT1-MMP reporter	WNV protease inh
COc1ccccc1Nc1ccc(C(=O)NC2CCCCC2)cn1	-2.7%	i	-0.3
C=CCN=C1CC(C)(C)CC(=O)/C1=C(/O)CCC(=O)OC	8.9%	i	0.12
O=C(Nc1nc(-c2ccc(S(=O)(=O)N3CCCCCC3)cc2)cs1)c1ccccc1	-0.9%	i	x
COc1ccc(NC(=O)Cc2cccs2)c(OC)c1	-1.3%	i	-1.1
C=CCn1c(=N)c(C#N)cc2c(=O)n3ccccc3nc21	-0.6%	i	x
CCCCCCn1c(SCCN2CCOCC2)nc2c1c(=O)[nH]c(=O)n2C	-3.9%	i	1.1
CCCc1cc(C(=O)NCc2ccco2)no1	0.7%	i	-1.1
CCS(=O)CCSc1nc2ccccc2s1 (stereo unspecified)	0.7%	i	x
O=C(CCn1c(=O)oc2ccccc21)NCc1cccs1	3.7%	i	1.8
COC(=O)[C@@H](NC(=O)Nc1ccc2c(c1)OCCO2)C(C)C	3.4%	i	-0.61
CC(C)CN(/C=N/c1sc2c(c1C#N)CCCCC2)CC(C)C	3.4%	i	x
CSc1nn(CCc2ccncc2)c(=S)s1	-0.7%	i	-0.4
Cc1csc2nc(CNS(=O)(=O)c3ccc(-c4ccccc4)cc3)cn12	-0.3%	i	-1.5
O=C(C1CCN(S(=O)(=O)c2ccc3ccccc3c2)CC1)N1CCN(c2ncccn2)CC1	1.2%	i	1
CCCCNC(=O)c1cc2c(=O)n3cccc(C)c3nc2n1C	2.6%	i	2.4
c1ccc(CCc2nn3c(Cn4cnc5ccccc54)nnc3s2)cc1	-2.1%	i	0.42
c1cnc(Oc2ccc3oc4ccccc4c3c2)nc1	3.4%	i	1.4
CCOC(=O)CS(=O)(=O)c1ccc2ccccc2c1	1.1%	i	-1.4
O=C(NC(Cc1c[nH]c2ccccc12)c1nnc2n1CCCCC2)c1cccs1 (stereo unspecified)	-16%	i	0.99
CC1CCCC(NC(=O)COC(=O)c2ccc(N(C)C)cc2)C1C (stereo unspecified)	-2.7%	i	x
COC(=O)C1=C(C)NC(=O)C1(NC(=O)c1cccnc1)C(F)(F)F (stereo unspecified)	-8.9%	i	-0.82
COc1cc(OC)c(-c2nnc(-c3ccc(OC)c(OC)c3OC)o2)cc1OC	4.1%	i	0.81
COc1cccc(-n2nnc3c(=O)n(Cc4c(F)cccc4Cl)cnc32)c1	-6.1%	i	1.6
COc1ccc(C2NC(=O)NC(C)=C2C(=O)OCc2ccc3c(c2)OCO3)cc1OC (stereo unspecified)	1.1%	i	x
CCOC(=O)C1CCN(C(=O)COc2ccc(Cl)cc2)CC1	1.7%	i	x
O=C(CN1C(=O)NC2(CCc3ccccc32)C1=O)c1ccc2c(c1)OCCO2 (stereo unspecified)	-3.3%	i	0.9
CCCNC(=O)CCC(NS(=O)(=O)c1ccc(C)cc1)C(=O)NCCC (stereo unspecified)	-0.3%	i	0.98
CCCCC(=O)Nc1nnc(SCC(=O)NC2CCCC2)s1	0.8%	i	x
NC(=O)c1cn(-c2ccccc2)nc1-c1cc2ccccc2oc1=O	0.1%	i	x
Cc1oc2ccc(OCC(N)=O)cc2c1C(=O)OC(C)C	0.5%	i	0.65
COc1ccc(NC(=O)Cn2cnc3c(cnn3-c3ccc(C)c(C)c3)c2=O)c(OC)c1	-7.4%	i	0.48
COc1ccc(CCNC(=O)CSc2nc(C)nc3c2oc2ccccc23)cc1OC	-7.9%	i	-0.11
CC(=O)C(Sc1ccc2nnc(-c3ccncc3)n2n1)C(C)=O	-4.6%	i	0.0013
CCN1CCN(CC(=O)Nc2ccc(C)cc2C)C(=O)C1=O	0.2%	i	1.1
CNC(=O)CSCc1cnn(-c2ccccc2)c1-n1cccc1	-5.4%	i	x
O=C(CCS(=O)(=O)Cc1ccccc1)NCC1CCCO1 (stereo unspecified)	8.5%	i	-0.48
Cc1oc2nc(SCC(=O)NCCCO)nc(N)c2c1C	-1.5%	i	x
COc1cccc(-n2ccnc2SCC(=O)NCc2ccccc2)c1	-5.0%	i	1
CCCCCCc1c(O)c2ccccc2[nH]c1=O	1.2%	i	1.1
O=C(NCc1cccnc1)NC1(C(F)(F)F)Oc2ccc(Cl)cc2O1 (stereo unspecified)	-7.6%	i	-0.36
CC(C)CC(=O)Nc1cc(C(F)(F)F)ccc1N1CCOCC1	1.7%	i	x
CCN1CNC(=S)N(c2cccc(C)c2C)C1	4.1%	i	x
COCCCn1c(N)c(-c2nc3ccccc3n2C)c2nc3ccccc3nc21	-9.8%	i	x
CCCCn1c(N)c(Sc2ccccc2)c(=O)[nH]c1=O	-3.3%	i	x
Cn1c(=O)oc2cc(S(=O)(=O)Nc3ccc4c(c3)OCO4)ccc21	5.3%	i	-0.13
CN(C)CCCNC(CC(=O)Nc1ccc(Cl)cc1)C(=O)O (stereo unspecified)	-0.2%	i	0.95
O=C(O)C1CC(=O)N(c2ccc(F)c(F)c2)C1 (stereo unspecified)	-3.0%	i	1.4
Cc1noc(C)c1CSc1nc2sc(C)c(C)c2c(=O)n1C1CCCC1	-4.8%	i	0.33
CN(C)S(=O)(=O)c1ccc(C(=O)Nc2ccccn2)cc1	3.2%	i	-0.37
CCCN=C(C)c1c(-c2ccccc2)[nH]n(-c2nc3ccccc3s2)c1=O	3.5%	i	x
Nc1ccc2c(c1)C(=O)N(CC1CCCO1)C2=O (stereo unspecified)	14%	i	-1.4
O=C1CC2CS(=O)(=O)CC2N1C1CCCCC1 (stereo unspecified)	1.0%	i	0.25
CCOC(=O)c1ccc(NC(=O)C2CCN(S(=O)(=O)c3ccccc3)CC2)cc1	-1.0%	i	-0.09
CCOc1ccc2nc(NC(=O)CN3CCN(c4ccccn4)CC3)sc2c1	-3.3%	i	-0.3
COc1ccc(CN2CC(C(=O)NCc3cccc(OC)c3)CC2=O)cc1 (stereo unspecified)	-2.2%	i	-0.92
Clc1nc(-c2n[nH]nc2Cl)n[nH]1	2.2%	i	x
COc1ccc(NC(=O)C2CCCN(C)C2)cc1OCC(C)C (stereo unspecified)	-0.8%	i	x
COc1ccc(CCNS(=O)(=O)c2cccc(C(=O)O)c2)cc1OC	2.4%	i	0.67
O=C(NCc1ccccn1)c1cccs1	0.2%	i	-0.33
COc1ccc(C(=O)Nc2ccc(N3CCN(c4ccc(OC)cc4)CC3)c(C#N)c2)cc1	-0.9%	i	1

Next section
SMILES	Hsc70 ATP site	MT1-MMP reporter	WNV protease inh
Cc1cc(NC(=O)CSc2nc3ccccc3c(=O)n2CCCC(=O)NCc2ccco2)n[nH]1	4.3%	i	0.22
COc1cc(NC(=O)C2CCCC2)c(OC)cc1Cl	4.4%	i	0.00094
CCn1nc(NC(=O)c2ccncc2)c2cc3ccc(C)cc3nc21	0.2%	i	0.37
CCOC(=O)c1sc2nc(N3CCOCC3)c3c(c2c1N)CCN(Cc1ccccc1)C3	2.7%	i	x
CCN(CC)S(=O)(=O)c1cccc(-c2nnc(SCc3nnc(-c4ccccc4)o3)n2C)c1	2.4%	i	x
CC(C)(C)c1ccc(N2C(=O)Cc3c2nc(N)c(C#N)c3N)cc1	1.2%	i	x
CC(CCc1ccccc1)NC(=O)CN1CCN(Cc2ccccc2)C1=O (stereo unspecified)	-3.0%	i	-0.83
CCN(CC)CCN1C(=O)C(O)=C(C(=O)c2sc(C)nc2C)C1c1cccnc1 (stereo unspecified)	2.6%	i	-0.26
CC(C)NC(=O)c1cccc(Cn2cc(Cl)cn2)c1	1.8%	i	-3.6*
CC(C)(O)C(=O)NN(C(=O)c1ccccc1)c1cccc(Br)c1	-2.7%	i	x
CC(=O)Oc1cc2c(C(C)=O)coc2c2ccccc12	1.0%	i	-1.5
CCC(=O)Nc1cc2nn(-c3ccc(OC)cc3)nc2cc1C	-10%	i	-0.49
CCCn1nnc(NC(=O)c2cc(Br)cc(Br)c2OC)n1	1.2%	i	0.27
CCCCC1(C)NC(=O)c2c(C)sc(C(=O)OCC)c2N1 (stereo unspecified)	6.2%	i	x
Cn1c(SCC(=O)O)nc2ccccc2c1=O	-6.1%	i	0.45
C=CCNc1nnc(C)c2ccccc12	-0.7%	i	0.1
CCOc1ccccc1OCC(=O)NCc1ccco1	3.6%	i	-0.97
Cc1oc2ccccc2c1-c1cn2c(n1)SCC2	-4.8%	i	-0.23
CC1(C)Cc2ccccc2-c2nnnn21	0.9%	i	-0.57
CCN1CCCC1CNC(=O)c1cc2c(-c3cccc(OC)c3)nn(C)c2s1 (stereo unspecified)	1.2%	i	-0.4
CCn1c(C(=O)N2CCC(C(=O)N3CCN(c4ccccn4)CC3)CC2)cc2sccc21	2.3%	i	0.65
COc1ccccc1C(OC(=O)c1cccs1)C(=O)NCc1ccco1 (stereo unspecified)	-2.2%	i	-0.9
COC(=O)c1cc2ccsc2n1CC(=O)N(C)c1ccccc1	-5.9%	i	-1
CC(C)Cn1c(SCC(=O)N2CCN(S(=O)(=O)c3ccccc3)CC2)nc2ccccc21	2.2%	i	-0.21
O=C(CCC1CCCCC1)Nc1ncn[nH]1	-1.9%	i	-0.63
COc1ccccc1NC(=O)CCN1CC(C)OC(C)C1 (stereo unspecified)	-1.7%	i	x
CCCCC(=O)OCCNC(=O)c1cc2ccccc2oc1=O	2.2%	i	-0.31
COc1ccc(C(=O)/C(=C/c2cccs2)c2nc3ccccc3o2)cc1	-3.4%	i	x
CCOC(=O)c1c(N)c(C#N)c2n1CCCCC2	-0.9%	i	-0.86
CNC(=O)CC12CC3CC(CC(C3)C1)C2	4.4%	i	x
CCOc1ccc2nc(NC(=O)C(CC)Sc3nc(C)cc(=O)[nH]3)sc2c1 (stereo unspecified)	0.7%	i	-0.49
CN1CC2(C)CN(C(c3ccccc3)c3ccccc3)CC(C)(C1)C2O (stereo unspecified)	9.3%	i	-0.67
OC12CCCCC1C(c1ccc3c(c1)OCO3)N(Cc1ccc(F)cc1)CC2 (stereo unspecified)	-3.8%	i	-0.72
CCOC(=O)c1c(-c2ccncc2)csc1N	4.9%	i	-0.7
Cc1cccc(C2Nc3ccccc3C(=O)N2c2ccc(F)cc2)n1 (stereo unspecified)	0.1%	i	x
O=C(CSc1nnc(-c2ccc(O)cc2)o1)N1CCOCC1	1.2%	i	-0.29
COc1ccccc1S(=O)(=O)Cc1ccc(C(=O)NCc2ccc3c(c2)OCO3)o1	-1.0%	i	0.34
CCOC(=O)N1CCC(c2cc(=O)n3[nH]cc(C(=O)OC)c3n2)CC1	-3.5%	i	0.37
Cc1cc(C(F)(F)F)n2ncc(-c3ccc(F)cc3)c2n1	1.3%	i	x
CCOC(=O)N1CCN(C(=O)C2CCN(S(=O)(=O)N(CC)CC)CC2)CC1	-2.8%	i	-1

Record cards, as listed above:
CC(CCc1ccccc1)NC(=O)CN1CCN(Cc2ccccc2)C1=O (stereo unspecified) across the screens: Hsc70 ATP site: -3.0%; MT1-MMP reporter: i; WNV protease inh: -0.83
CCC(=O)Nc1cc2nn(-c3ccc(OC)cc3)nc2cc1C across the screens: Hsc70 ATP site: -10%; MT1-MMP reporter: i; WNV protease inh: -0.49

(listing goes on)
SMILES	Hsc70 ATP site	MT1-MMP reporter	WNV protease inh
CC1CCN(CCCNC(=O)C2CCC(=O)N2C2CCCC2)CC1 (stereo unspecified)	-2.0%	i	0.53
O=C(O)c1[nH]c2ccc(Cl)cc2c1CC(=O)N1CCN(C(=O)c2ccco2)CC1	3.9%	i	0.19
CC(C)CC(=O)Nc1nc2c(c(=O)[nH]1)CCCC2	11%	i	x
CC(=O)NC(Cc1ccccc1C)C(=O)NC1CCN(c2c3c(nc4ncnn24)CCC3)CC1 (stereo unspecified)	2.0%	i	-0.9
CC(C)c1ccc(C2CC(=O)N3CN(C)CSC3=C2C#N)cc1 (stereo unspecified)	4.2%	i	1
COc1ccc(S(=O)(=O)n2cnc3cc(C)c(C)cc32)cc1C	-5.2%	i	2
Cc1cc2oc(=O)cc(CN3CCCCC3C)c2c(C)c1Cl (stereo unspecified)	-0.6%	i	0.35
CCCCOC(=O)Nc1nc2ccccc2s1	-2.1%	i	x
CC1(C)CC(=O)C2=C(C1)Nc1nc(SCCN3CCOCC3)[nH]c(=O)c1C2c1cccs1 (stereo unspecified)	-0.7%	i	0.69
